TRPV1 potentiator: human TRPV1 potentiation | TRPV1-expressing cells, Fluo-8 calcium influx, capsaicin EC20 potentiation; host cell line not named in the record; control for the full effect not named in the record | 320,000 compounds, 0.02% hits | potentiation, % at 8.33 µM; active means potentiation above 80%; inconclusive means 30% to 80%; inactive means below 30%; further: 0% is about no effect
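Cells expressing TRPV1 were dye-loaded with Fluo-8 and read kinetically: 10 s baseline, 3 min after compound (agonist portion), then 2 min after EC20 capsaicin (allosteric enhancer portion). Calcium-bound dye fluorescence at 480/520 nm.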
Six1-Eya2 blk: Six1/Eya2 interaction inhibition | 360,000 compounds, 0.56% hits | AlphaScreen GST-Six1/His-Eya2 binding, biochemical; active compounds read low; control for the full effect not named in the record | Q15475+O00167 | AID 651725 | activity change, % (test concentration not listed); in the data active = activity change below about -65%; inconclusive = about -30% to -65%; inactive = above about -30%; further: on the % scale 0 is the no-effect control and ±100 the full control effect
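GST-Six1 + His-Eya2 (5X stock: 250/500 nM); Tris pH 8.0, 300 mM NaCl, 0.05% BSA, 0.02% Tween 20; GSH donor/Ni acceptor beads; 1 h 37 °C dark; AlphaScreen readout.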
D2 ag: human D2 receptor agonism in beta-arrestin assay | P14416 | DiscoveRx PathHunter D2 beta-arrestin, luminescence, 90 min; 100% = 57 uM dopamine signal | activation, % (concentration not given with the values) | 360,000 compounds, 0.084% hits | AID 624465; in the data active = activation above about 40%; inconclusive = about 15% to 40%; inactive = below about 15%; further: the text of the record calls up to 30% inactive
Target sequence (P14416 whole entry, looked up): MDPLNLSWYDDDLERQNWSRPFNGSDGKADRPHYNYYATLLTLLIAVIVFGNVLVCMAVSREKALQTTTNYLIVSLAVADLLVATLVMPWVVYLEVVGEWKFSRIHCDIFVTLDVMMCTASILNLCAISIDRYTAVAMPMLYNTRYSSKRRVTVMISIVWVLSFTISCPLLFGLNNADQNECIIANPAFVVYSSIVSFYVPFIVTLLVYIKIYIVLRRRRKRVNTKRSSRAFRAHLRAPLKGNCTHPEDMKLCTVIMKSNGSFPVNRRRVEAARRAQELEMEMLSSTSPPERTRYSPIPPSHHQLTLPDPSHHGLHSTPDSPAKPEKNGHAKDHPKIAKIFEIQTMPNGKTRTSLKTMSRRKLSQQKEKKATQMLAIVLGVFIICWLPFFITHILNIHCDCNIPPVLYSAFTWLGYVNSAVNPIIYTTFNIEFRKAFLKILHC
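DiscoveRx PathHunter D2 beta-arrestin cells (2,100/well) attached overnight, then compound-stimulated 90 min at 37 C in HBSS/10 mM HEPES/0.1% Tween-20 buffer; beta-galactosidase complementation read by luminescence after 1 h at ambient temperature. Dopamine 57 uM final (EC100) as control.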
D2 potentiator: potentiates the human D2 dopamine receptor allosterically. potentiation, % (test concentration not listed). AID 624464. DiscoveRx D2 beta-arrestin cells, luminescence, 90 min; 100% = 57 uM dopamine signal. 360,000 compounds, 0.23% hits. P14416; active = potentiation of 50% or more; inconclusive = 30% to 50%; inactive = 30% or less;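 further: compound concentration not given in the record; tested on top of an EC20 dose of dopamine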
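D2 cells co-treated with compound plus 50 nM dopamine (EC20) for 90 min at 37 deg C to detect potentiation. Beta-arrestin recruitment was read as enzyme-fragment luminescence after 1 h at ambient temperature. Full response was set by 57 uM dopamine.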
PINK1 modulator: changes PINK1 expression; PINK1 immunofluorescence, high-content cytometry, 24 h; 410,000 compounds, 0.2% hits; Potency, µM (series often up to 76.6 µM), for the others: at the top dose activation (PINK1 increase), actives largely listed as activators; active = well fitted activation curve with a large enough effect; inconclusive = small, poorly fitted or top-dose-only effect; inactive = flat fitted curve, though single readings scatter; cell line not stated here;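 further: potency means the concentration at half of the fitted maximal effect; % of control where 0% means no effect; nearly all actives have a fitted effect of over 65% in size; a mitochondrial uncoupler was the plate control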
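Stable cell line treated 24 h with compounds at 5 concentrations (CCCP controls), then fixed and immunostained for PINK1 plus nuclear and cell stains; PINK1 immunofluorescence quantified by laser-scanning microplate cytometry.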
Sfp inh: inhibitors of Bacillus subtilis Sfp phosphopantetheinyl transferase; Q9F4F7; Biochemical Sfp PPTase activity, qHTS; Potency, µM, without a hit: max response, negative = inhibition, usual class: inhibitors; 310,000 compounds, 3.5% hits; AID 1490; active means well fitted inhibition curve with a large enough effect; inconclusive means small, poorly fitted or top-dose-only effect, or another doubt; inactive means no such curve, though single readings can be large or run the other way;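 further: the enzyme is Sfp with the accession as filed and its product quenches rhodamine fluorescence; potency means the concentration at half of the fitted maximal effect; 0% = enzyme reaction without inhibitor and -100% = no enzyme wells; top concentration of the series not given in the record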
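Reaction rates are the 30-min fluorescence difference (ex 525, em 598 nm) in wells containing 15 nM Sfp, 5 uM rhodamine-CoA and 12.5 uM BHQ-2-YbbR at pH 7.6 with 10 mM MgCl2.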
CtBP-E1A inh: inhibitors of CtBP/E1A interaction | 340,000 compounds, 0.49% hits | activity change, % (concentration not given with the values) | AlphaScreen GST-E1A/His-CtBP binding, 1536-well; active compounds read low; control for the full effect not named in the record; in the data active means activity change below about -65%; inconclusive means about -30% to -65%; inactive means above about -30%; further: on the % scale 0 is the no-effect control and ±100 the full control effect
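Steps: dispense buffer (Tris pH 8.0, NaCl 300 mM, TCEP 1 mM, BSA, Tween 20); add 5X protein mix (GST-E1A, His-CtBP, 125 nM each); pin 23 nL compound; 2 h at 37 °C, dark; add 5X beads (50 ug/mL); 1 h; read.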
* hit, by the source's call; ? = inconclusive; . = no result given; & = joins results of further samples; [ ] = dose if it differs, or a comment.

canonical_smiles,TRPV1 potentiator,Six1-Eya2 blk,D2 ag,D2 potentiator,PINK1 modulator,Sfp inh,CtBP-E1A inh
COc1cc(CNc2ccc(N3CCOCC3)c(C(=O)O)c2)ccc1OCC(N)=O,0,2,-0.3,2,1.4%,19%,-16
CC1CC(=O)N(c2ccc(NCc3ccc(Cl)cc3)c([N+](=O)[O-])c2)C1=O (centres undefined),-2,?,-3.0,-5,2.2%,-23%,-21
CCC1CCCCN1S(=O)(=O)c1ccc(C(=O)Nc2nnc(C3=COCCO3)o2)cc1 (centres undefined),1,3,-3.0,?,0.8%,18%,-6
COc1ccccc1CNC(=O)c1nnc(Cc2ccc(Cl)cc2)o1,1,2,-2.0,-6,-0.5%,4%,-1
COc1ccc(-c2ccc3c(c2)[C@@H]2C[C@H](N(C)C(=O)Nc4ccccc4)[C@H]([C@H](C)O)C(=O)N2CC3)cc1,.,-3,-1.5,.,1.0%,.,1
O=C(O)c1ccccc1/C=N/Nc1ccc(S(=O)(=O)N2CCOCC2)cc1[N+](=O)[O-],-1,-5,0.2,-7,-1.5%,-1%,-8
COc1ccc(NC(=O)CCNS(=O)(=O)c2cccc3nsnc23)cc1,15,1,-1.0,-1,-1.2%&0.9%,-4%,1
CCOc1ccc(/C=C(\C(=O)O)c2ccc(S(=O)(=O)N3CCCCC3)s2)cc1OC,.,1,-5.6,0,-3.5%,.,-1
On1onc2c3cc(-c4ccccc4)nc3ccc21,11,?,14,59*,12%,-8%,-27
Nc1ccc(C(=O)Nc2ccc(Nc3ccncc3)cc2)c([N+](=O)[O-])c1,.,2,-7.5,-28,-0.8%,.,-7
CCN1C2OC3OC4C(OC3OC2N(CC)S1(=O)=O)N(CC)S(=O)(=O)N4CC (centres undefined),-7,1,1.9,-12,-0.6%,12%,.
COc1ccc(CNC(=O)C(c2ccco2)N(C(=O)c2snc(C(N)=O)c2N)c2cccc(OC)c2)cc1 (centres undefined),18,-2,6.5,-3,6.0%,7%,-15
COc1cc(N=c2ssnc2Cl)cc(OC)c1,-18,-4,-8.4,-12,0.7%,1.8µM*,-1
O=C(COc1ccc2c(-c3ccccc3)cc(=O)oc2c1)Nc1cccnc1,-1,7,3.7,-9,2.2%,-12%,-1
COc1ccc(S(=O)(=O)NC(=O)C2(C)CCN2C(=O)CCc2ccc(Cl)cc2Cl)cc1 (centres undefined),.,5,-0.5,-10,-0.6%,.,-1
COc1cccc(OC)c1C(=O)NC(C)CCc1ccccc1 (centres undefined),25,-1,5.0,-2,0.2%,16%,-2
O=C(Cn1cc2c(n1)CCCC2)NCc1cccs1,-4,4,-2.3,-5,-2.9%,4%,5
Cc1ccc(C)c(Oc2ccc(S(=O)(=O)N3CCN(C)CC3)cn2)c1,-15,3,1.9,-1,-0.3%,.,0
CC(C)c1ccc(NC(=O)C2CC(=O)N(C(C)C)C2)cc1 (centres undefined),-12,0,-2.7,12,-1.8%,8%,5
COCCCNC(=O)CSc1nc2cc3c(cc2c(=O)n1CCCC(=O)NCc1ccc(OC)cc1)OCO3,2,4,-1.1,-3,0.9%&-1.3%,4%,-9
CN(CC(=O)Nc1ccc(N2CCOCC2)cc1)CC(=O)Nc1ccc(Cl)cc1[N+](=O)[O-],-17,-24,-2.1,15,-1.8%,-13%,-7
O=C(O)COCC(=O)Nc1cc(C(F)(F)F)cc(C(F)(F)F)c1,-4,1,-3.0,-15,3.0%,25%,.
Nc1c(C(=O)NCCc2ccccc2)nnn1Cc1ccc(Br)cc1F,9,0,0.2,-4,1.5%,17%,-3
Nc1nonc1-n1nnc(C(=O)N/N=C/C2CCCCC2)c1-c1ccccc1,18,1,-7.8,-12,-0.7%,1%,5
CC1=C(C(=O)N2CCCCCC2)CC(CC(=O)NC2CCCCC2)C(=O)N1Cc1ccccc1 (centres undefined),.,0,2.1,-2,0.8%,.,2
N#C/C(=C\N1CCOCC1)S(=O)(=O)c1ccc(Cl)cc1,-4,6,-3.1,-5,-1.6%,3%,13
Fc1cccc(F)c1/C=N/N1CCOCC1,-5,2,-21,3,1.8%,16%,6
COc1cccc(CNC(=O)C(c2ccc(Cl)cc2)C(C)C)c1 (centres undefined),14,-1,-8.4,-7,0.2%,14%,1
CN(C)c1cncc(C(=O)O)c1,-39,5,-1.3,-3,-0.6%,56µM*,10
Cc1ccc(C)c(OCCCCN2CCNCC2)c1C,8,3,3.4,-48,15%,7%,.
O=C(Nc1nccs1)C1CC(=O)N(c2ccc(F)cc2)C1 (centres undefined),22,5,-2.2,-5,0.9%,12%,-13
COc1ccc(CNC(=O)CN(Cc2ccco2)C(=O)CCC(=O)Nc2ccccn2)cc1,-12,-1,1.5,-9,0.2%,10%,9
CC(C)n1c(N2CCN(S(=O)(=O)c3cccc([N+](=O)[O-])c3)CC2)nc2ccccc21,4,-14,5.7,0,-0.6%,-2%,-10
CCOCc1cn(CC(=O)c2ccc([N+](=O)[O-])cc2)c(C)nc1=N,0,-2,-2.2,2,-0.4%,13%,-3
O=C1N=C(N2CCCC2)CN1c1ccccc1,2,24,-1.4,5,-0.8%,7%,0
COC(=O)/C(=C\C(=O)c1ccc([N+](=O)[O-])cc1)Nc1ccc(OC)cc1,-4,?,0.0,4,-0.8%,-8%,?
CN(C)c1ccc(C(=O)OCC(=O)NC2CCCCC2)cc1,-15,7,-1.3,1,1.0%,4%,0
Cc1ccc(C)c(OC(=O)C2CSC3(C)CCC(=O)N23)c1C (centres undefined),-3,9,-4.2,-14,-0.2%,.,.
O=S(=O)(c1ccc(-n2cnnn2)cc1)N(C1CCCCC1)C1CCCCC1,.,-10,0.4,1,5.5%,22%,-22
COc1ccc(-c2cc(=O)c3cc(OC)ccc3o2)cc1,21,3,-5.4,-4,-1.9%&1.7%,?,-4
CCOc1ccc(C(C)NC(=O)C2CCN(S(=O)(=O)c3ccc(OC)cc3)CC2)cc1OCC (centres undefined),.,4,1.5,-8,5.8%,.,-1
CCOC(=O)N1CCN(C(=O)COC(=O)CNC(=O)c2ccc(OCC)c(OCC)c2)CC1,8,1,-2.1,4,-3.2%,.,3
COc1ccc(N2C(=S)N=C(Nc3cccc(C)c3)C23CCCCC3)cc1,-4,5,-2.5,-23,13%,17%,7
CC1CC(C)CN(CCCNC(=O)Cn2ncc3c([nH]c4ccccc43)c2=O)C1 (centres undefined),13,3,0.9,-11,-2.1%,5%,.
CN(CC(=O)Nc1sccc1C(N)=O)S(=O)(=O)c1ccc(Cl)cc1,.,8,1.7,-6,1.8%,.,10
CS(=O)(=O)c1ccc2nc(NC(=O)Nc3ccc(Cl)c(Cl)c3)sc2c1,-1,0,-0.6,-6,10%,17%,5
COc1ccccc1C(=O)N=c1sc2c(C)ccc(OC)c2n1C,-9,-4,-4.4,3,2.4%,-18%,0
COc1ccc(-c2nnc(SCC(=O)Nc3ccccc3)n2C)cc1,6,1,-2.9,-13,-4.0%[38.3 µM],-1%,7
COc1ccc(COCC(CC(C)C)N2CCN(C(=O)c3cccc(C(F)(F)F)c3)CCC2=O)cc1 (centres undefined),-3,-4,0.6,0,2.5%,-12%,-21
CC(OC(=O)c1ccc(NC(=O)CC#N)cc1)C(=O)NCCC1=CCCCC1 (centres undefined),0,20,-0.5,4,-0.6%,.,.
Cc1ccc(NC(=O)c2ccc(Cl)cc2Cl)cc1O,-2,20,3.1,-8,1.9%,6%,4
Cc1ccc(CNC(=O)C2CCC(=O)N2C2CCCCC2)cc1 (centres undefined),-5,-1,0.0,-1,?,0%,0
Cn1c(C(=O)N2CCN(Cc3ccc4c(c3)OCO4)CC2)cc2sccc21,-2,-16,-1.6,-19,3.8%[38.3 µM],-2%,6
CCc1ccc(S(=O)(=O)/N=C2\C=C(Nc3ccc(O)cc3)C(=O)c3ccccc32)cc1,-2,-70*,-8.7,14,-1.0%,-11%,-89*
COc1ccc2nc(-c3ccccc3)cc(C(=O)OCC(=O)NC3CC3)c2c1,4,2,4.6,-6,?,.,6
COc1ccc(NC(=O)CCNC(=O)N2CC(=O)Nc3ccccc32)cc1,.,-2,-3.5,-14,1.3%,.,0
O=C(Nc1ccc(F)cc1)Nc1ccc2ccccc2n1,2,2,-1.4,1,4.0%,10%,4
CCN(CC)S(=O)(=O)c1cccc(C(=O)OC2CCOC2=O)c1 (centres undefined),4,-4,-3.6,-4,1.9%,?,-7
O=C(COc1ccccc1)Nc1cccc(-c2ccc(N3CCOCC3)nn2)c1,7,-7,-0.8,0,0.0%,.,-3
O=C(Cc1cccc2ccccc12)NNC(=O)c1ccc(Br)o1,4,-6,-0.7,-4,1.5%,4%,4

Look-ups from the entries so far.
COc1ccc(COCC(CC(C)C)N2CCN(C(=O)c3cccc(C(F)(F)F)c3)CCC2=O)cc1 (centres undefined) in CtBP-E1A inh = -21
COc1ccc(-c2nnc(SCC(=O)Nc3ccccc3)n2C)cc1 in Sfp inh = -1%

The listing continues.
canonical_smiles,TRPV1 potentiator,Six1-Eya2 blk,D2 ag,D2 potentiator,PINK1 modulator,Sfp inh,CtBP-E1A inh
Cc1ccc(C(=O)O/N=C2\CCS(=O)(=O)c3sccc32)cc1,-23,3,-3.1,-5,5.9%,21%,1
COC(=O)[C@]12CCCCC=C1N(Cc1ccc(Cl)cc1Cl)C(=O)[C@H](CC(=O)NCC1CCCCC1)C2,.,1,.,.,1.9%,.,-2
COc1cccc(CN2CCN(C(=O)Nc3ccc([N+](=O)[O-])cc3)CC2)c1,7,-4,6.0,-3,1.6%,-17%,-18
COc1ccc(NC(=O)CC2S/C(=N\c3nccs3)N(C)C2=O)cc1 (centres undefined),-16,14,-2.5,-11,8.7%,-2%,2
CCCC(=O)NC(c1ccc(OC)c(OC)c1)c1c(O)ccc2ccccc12 (centres undefined),5,-1,-3.4,-12,-2.9%[38.3 µM],3%,-5
CCCCn1c(N)c(N(CCOC)C(=O)CN(C)CC(=O)Nc2ccc(Cl)c(Cl)c2)c(=O)[nH]c1=O,.,0,-5.0,-2,1.5%,.,-14
CCOCC(=O)Nc1cc(C(F)(F)F)ccc1Oc1cccc(Br)c1,9,58,2.3,3,5.4%,1%,46

Screens as filed in PubChem BioAssay.
